Screening data from PubChem BioAssay.
Calb biofilm kill – mixtures killing C. albicans biofilm. C. albicans biofilm persisters + clotrimazole, fluorescence viability; primary screen in compound mixtures of four per well. inhibition, % at 7.6 µM. 0.02% of 120,000 active;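 active = inhibition above 30.3% in the primary screen of four-compound pools, then above 30% when the compound was retested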;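 also: compounds exposed to preformed 24 h biofilms for 48 h; the number belongs to the whole pool; some results filed as inactive read as strong as hits; inactives centre near 12; 0% = biofilm with clotrimazole alone and 100% = kill control; retested singly at about 60 µM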
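Test system: C. albicans CAF4-2 wild-type biofilms; buffer or medium: RPMI/MOPS medium, pH 7.0; schedule: 24 h biofilm formation, then 48 h compound exposure, 37 °C; detection: Alamar Blue fluorescence; measure: percent inhibition of biofilm viability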
* = called active by the depositor.

SMILES	Calb biofilm kill
Cc1ccc(NS(=O)(=O)c2cccc(C(=O)Nc3cc(C)on3)c2)cc1	3
Cc1ccc2oc(=O)n(CC(=O)N3CCOCC3)c2c1	14
Cc1cc2nc(-c3ccc(SCC(=O)Nc4ccc(S(=O)(=O)NC5CC5)cc4)nc3)[nH]c2cc1C	11
CN1CCN(c2ccc(S(=O)(=O)N3CCCCC3)cc2[N+](=O)[O-])CC1	14
COc1cc(C(=O)Nc2ccc(N(C)C)cc2)c([N+](=O)[O-])cc1OC	13
O=c1c2c([N+](=O)[O-])cc([N+](=O)[O-])cc2sn1-c1ccc(Br)cc1	17
S=c1[nH]nc(Cn2c(-c3ccccn3)nc3ccccc32)n1-c1ccc2c(c1)OCCO2	6
c1ccc(-c2nc(-c3ccccn3)nc(-c3ccccn3)n2)nc1	21
Cc1ccccc1C(=O)Oc1ccccc1N1C(=O)C2CC=CCC2C1=O (stereo not given)	18
O=C(CN1C(=O)C2C3C=CC(C4CC34)C2C1=O)OCC(=O)c1ccccc1 (stereo not given)	7
CC(C)c1ncc(C(O)c2ccccc2)n1C (stereo not given)	12
CC(C)OC(=O)c1c2c(n3ccccc13)C(=O)c1ccccc1C2=O	15
CCOC(=O)N1CCN(c2c(N3CCN(c4ccccc4F)CC3)c(=O)c2=O)CC1	17
C=CCn1c(SCCCC)nc(O)cc1=O	26
Nc1nnc(Sc2ccc(Cl)cc2[N+](=O)[O-])s1	-5
CCOc1ccccc1N(CC(=O)N/N=C(\C)c1cccc(Br)c1)S(C)(=O)=O	27
COc1ccc(S(=O)(=O)N2CCCCC2)cc1NC(=O)CSc1ncnc2ccccc12	20
C=C(C)C(=O)Nc1cccc(C2=NOC3(C2)C[C@H](C(N)=O)N(C(=O)/C=C/C)C3)c1 (stereo not given in full)	7
CN(CCc1ccccn1)C(=O)CCC1CCCN(C(=O)c2ccsc2)C1 (stereo not given)	-1
CC(C)NC(=O)NC(=O)COC(=O)c1ccccc1O	12
COc1cc(O)c(C(CC(=O)N2CCCCC2)c2ccc(N(C)C)cc2)c(OC)c1 (stereo not given)	15
Cc1nc(N)[nH]c(=O)c1CC(=O)OCCCl	20
Cc1ccccc1Cn1nc(C)c(NC(=O)c2ccccc2)c1C	-1
Cc1nn(CC(=O)N2CC(=O)Nc3ccccc32)c(C)c1[N+](=O)[O-]	2
CC(=O)c1cc(C#N)c(SCc2ccc([N+](=O)[O-])cc2)nc1C	5
Cc1ccc(C2=Nc3ccccc3N=C(C(Cl)Cl)C2)cc1	27
O=C(c1cc([N+](=O)[O-])ccc1N1CCCCC1)N1CCc2ccccc21	12
CN(c1ccc(O)cc1)c1nc(-c2cccs2)cs1	-7
Cc1ccc2nc(Cl)nc(-c3ccccc3)c2c1	37
O=C(CSc1nc2ccc(NC(=O)C3CCCCC3)cc2s1)NCC1CCCO1 (stereo not given)	9
CCCN(CC(=O)Nc1ccc(Cl)cc1Cl)C(=O)/C=C/c1ccco1	19
COc1ccc(CNC(=O)COC(=O)c2ccc(Br)cc2)cc1	18
C=CCn1c(SCC(C)=O)nnc1-c1cc(-c2ccccc2)sc1N	6
CCc1ccc(S(=O)(=O)c2ccc(-n3nc(C)cc3N)cc2)cc1	4
COc1ccc(NS(=O)(=O)c2ccc(N3CCCC3)c(NC(=S)Nc3ccc(SC(F)F)cc3)c2)cc1	7
COc1ccc(C(C)=O)cc1COc1ccc([N+](=O)[O-])c(C)c1	5
O=C(O)CCCN1C(=O)/C(=C/c2cn(-c3ccccc3)nc2-c2cccs2)SC1=S	16
COc1cc2c(cc1OC)CN(C(=O)c1ccco1)CC2	5
CCCCCCNS(=O)(=O)c1ccccc1Br	14
O=C(Cc1cccs1)N1CCN(S(=O)(=O)c2ccc(Br)cc2)CC1	12

Among those listed so far, 5 have a Cl atom.
SMILES	Calb biofilm kill
Nc1nnc(Sc2ccc(Cl)cc2[N+](=O)[O-])s1	-5
Cc1nc(N)[nH]c(=O)c1CC(=O)OCCCl	20
Cc1ccc(C2=Nc3ccccc3N=C(C(Cl)Cl)C2)cc1	27
Cc1ccc2nc(Cl)nc(-c3ccccc3)c2c1	37
CCCN(CC(=O)Nc1ccc(Cl)cc1Cl)C(=O)/C=C/c1ccco1	19

The results go on:
SMILES	Calb biofilm kill
COc1nccnc1NS(=O)(=O)c1ccc(NC(=O)c2cccc(C)c2)cc1	23
Cc1ccc(C)c(OCC(=O)Nc2nc3ccc([N+](=O)[O-])cc3s2)c1	15
CC(=O)N/C(=C\c1ccccc1)C(=O)OCC(=O)N(C)C1CCCCC1	6
CC1(C(=O)NCCCN2CCOCC2)Oc2cccnc2NC1=O (stereo not given)	11
Cc1ccc2nc(N/C(=N/S(=O)(=O)c3ccc(F)cc3)c3ccccc3)sc2c1	10
Cc1cccc(C(=O)NNC2=CC(=O)CC(C)(C)C2)c1O	17
O=C(CNC(=O)COc1ccccc1)NCc1ccccc1F	10
COc1ccc(OCC(O)CNC(=O)c2ccccc2C(=O)O)cc1 (stereo not given)	15
Cc1ccccc1-c1ccc(C(=O)Nc2cccc(F)c2)o1	14
CCN1C(=O)C(CC(=O)Nc2ccc(OC)cc2)N(CCN2CCOCC2)C1=S (stereo not given)	11
CC(=O)N/C(=C\c1ccc(Cl)cc1)C(=O)O	18
CCOc1cc(C(=O)CCC(=O)OCC(=O)Nc2ccc(C)c(S(=O)(=O)N(C)C)c2)ccc1O	12
CN(CC(=O)Nc1ccc(Cl)cc1)CC(=O)Nc1ccc(C(N)=O)cc1	0
CC(C)N(Cc1cn(C)nc1-c1cccc(Cl)c1)Cc1nccn1C	4
CCn1nnnc1-c1ccc(OC)c(S(=O)(=O)NCCc2ccccc2)c1	-7
Cc1ccccc1C(=O)NC(NC(=S)Nc1ccc(S(N)(=O)=O)cc1)C(Cl)(Cl)Cl (stereo not given)	-10
C=CCn1c(SC)nnc1-c1ccc2ncccc2c1	24
COC(=O)c1cc(COC(=O)c2nc3nccc(C)n3n2)oc1C	0
COc1ccccc1N1CCN(C(=O)CCCn2nc(C)c([N+](=O)[O-])c2C)CC1	19
COCC(=O)Nc1ccc(Br)c(C)c1	12

Given with each value named: entries from further up.
> COc1ccc(OCC(O)CNC(=O)c2ccccc2C(=O)O)cc1 (stereo not given)
  Calb biofilm kill: 15

> CCN1C(=O)C(CC(=O)Nc2ccc(OC)cc2)N(CCN2CCOCC2)C1=S (stereo not given)
  Calb biofilm kill: 11

> CC1(C(=O)NCCCN2CCOCC2)Oc2cccnc2NC1=O (stereo not given)
  Calb biofilm kill: 11

> CC(=O)N/C(=C\c1ccccc1)C(=O)OCC(=O)N(C)C1CCCCC1
  Calb biofilm kill: 6

Next section
SMILES	Calb biofilm kill
Cc1ccc(S(=O)(=O)NC(=O)Nc2nc(-c3ccc(F)c(F)c3)cs2)cc1	26
Cc1cc(C(=O)NCc2ccc(S(N)(=O)=O)cc2)ccc1[N+](=O)[O-]	10
Cc1nc(-c2ccccn2)sc1C(=O)O	-2
CCOC(=O)N1CCN(C(=O)CSc2ccc(-c3cccc(OC)c3)nn2)CC1	18
O=C(NN1CCOCC1)c1cccc(COc2cccc(Br)c2)c1	0
Cc1ccc(NC(=O)O/N=C/c2cccc([N+](=O)[O-])c2)cc1	13
CC(C)(C)NCc1cc(Br)ccc1OC1CCCC1	5
O=C(Nc1ccc2[nH]ccc2c1)c1ccc(F)cc1	21
COc1cccc(-c2csc(N3CCN(C(=S)Nc4ccccc4C)CC3)n2)c1	13
CN1C(C(=O)NCc2cccc(C(F)(F)F)c2)CC2Cn3c(nc4cc5ccccc5cc43)C21 (stereo not given)	22
CC(C(=O)NC1CCCc2ccccc21)N1CCN(c2ccc(F)cc2)CC1 (stereo not given)	16
COC(=O)CN1C(=S)N(C)C(=O)C1CC(=O)Nc1ccccc1 (stereo not given)	10
COc1ccc(CN(C(C)=O)c2ccccc2C(=O)O)cc1	4
N#CCCN(Cc1cccnc1)C(=O)c1sc2cc(F)ccc2c1Cl	23
O=C(CCc1nnc(C2CCCCC2)o1)NCc1ccc(F)c(F)c1	11
CCO[C@@H]1OC(C(=O)NC2CC2)=C[C@H](c2ccccc2)[C@H]1CCCO	16
COc1ccc([N+](=O)[O-])c(OC)c1C(=O)NC(=O)Nc1nc(C)cc(C)n1	2
Cc1nc2ccccn2c1C(=O)N/N=C/c1cc(C)n(-c2ccc(Br)cc2)c1C	6
Cc1ccnc(NC(=O)CSc2nnc3c(n2)[nH]c2ccccc23)c1	23
COc1cc(C(=S)N2CCN(C)CC2)ccc1OCC(=O)NCc1ccccc1	10
COC(=O)c1cn(Cc2ccccn2)c(=O)c2ccccc12	1
CS(=O)(=O)Nc1ccc(C2=NN(S(C)(=O)=O)C(c3ccccc3)C2)cc1 (stereo not given)	14
CC(C)C(NC(=O)OCc1ccccc1)C(=O)NC1CCCCC1 (stereo not given)	20
CC(C)(C)c1ccc(C(=O)N/C(=C/c2cccs2)C(=O)NCc2ccco2)cc1	0
C=CCN1C=CC(=CC=C(C#N)C#N)C=C1	16
O=C(Nc1ccc2c(c1)OCO2)Nc1ccc2c(c1)OCO2	9
COCCN(CC(=O)NC1CCCCC1)C(=O)CCCC(=O)Nc1ccccn1	-1
CC(=O)Nc1ccccc1-c1nc2ccccc2nc1OCC(=O)c1ccc(Cl)cc1	18
CC(=O)Cc1nsc(NC(=O)c2ccc(-c3cccc(Cl)c3)o2)n1	12
CC(=O)c1ccc(Oc2nc(-c3cccnc3)nc3ccccc23)cc1	6
COc1ccc(C[C@H]2CN3C(=NC[C@@H]3Cc3ccc(O)cc3)N2C[C@H](C)NC(=O)c2ccc(C)c(Br)c2)cc1	18
COc1ccc2[nH]c3c(c2c1)CCNC3C1CC=C(C)CC1 (stereo not given)	22
CCOC(=O)CSc1ncnc2c1c(-c1ccccc1)cn2-c1ccc(OC)cc1	14
O=C(O)CCCN1C(=O)/C(=C/c2ccncc2)SC1=S	22
CCOC(=O)c1c(N)c2cc([N+](=O)[O-])ccc2n1C	12
CCOc1cc(/C=N/NC(=O)c2ccc(CSc3nncn3C)cc2)ccc1OCC(=O)N1CCOCC1	18
C=CCn1c(C)cc(C(=O)COC(=O)c2ccc(N)c([N+](=O)[O-])c2)c1C	9
Clc1nc2ccccc2cc1-c1nnn(-c2ccccc2)n1	11
CC1CCCN(C(=O)c2ccccc2OC2CCN(S(C)(=O)=O)CC2)C1 (stereo not given)	3
C=C(C)CNC(=S)N/N=C/C1=CCC2CC1C2(C)C (stereo not given)	12
Cc1ccc(Cl)cc1-n1c(=O)cc(N2CCN(C(=O)c3ccco3)CC2)[nH]c1=O	14
CCOC(=O)c1ccc(N2CCCCC2)c(NS(=O)(=O)c2ccc(C)cc2)c1	6
CCOC(=O)c1ccccc1NC(=O)CN1CCC(n2nnc3cc(C(F)(F)F)ccc32)CC1	16
O=C(CCC(=O)Nc1ccccc1)NCCO	16
O=C(NNC(=S)NCc1ccccc1)c1ccc(Br)o1	15
CN(C1=NC(=O)CS1)c1ccc(O)cc1	13
COCCNC(=O)c1ccc(CN2CCc3ccccc3C2)cc1	15
CN(C)CCCN(C(=O)c1ccco1)c1nc2ccc(F)cc2s1	20
CCC(=O)c1cc2c(C)cc(=O)oc2c(C)c1OC(C)=O	3
O=C(COc1ccc2c(-c3ccccc3)cc(=O)oc2c1)NCc1cccs1	17
CC(C)Cn1c(-c2ccc(Br)o2)n[nH]c1=S	12
Cc1cc(C)c(/C([O-])=C(/C(=S)Nc2ccc(SC(F)F)cc2)[n+]2ccccc2)cc1C	-2
CCN1Cc2c(/C=C/c3ccccc3)nc3ccc(OC)cc3c2N(c2cccc(Cl)c2)C1	14
CC1(/[N+]([O-])=C/c2cccc(Cl)c2)CCCCC1=O (stereo not given)	18
COc1ccc(OCC(=O)C2CC2)c(C#N)c1	17
N/C(=N\OC(=O)Nc1ccccc1)c1ccno1	13
CCOC(=O)/C(C#N)=C\C1=C(N2CCOCC2)CC(C)(C)OC1	14
CNC(=O)COc1ccc(C=O)cc1OC	16
CCOc1ccc(CCNC(=O)COC(=O)Cn2cnc3ccccc3c2=O)cc1OCC	11
O=[N+]([O-])c1ccc(N2CCN(S(=O)(=O)c3ccccc3)CC2)c2cccnc12	5

(listing goes on)
SMILES	Calb biofilm kill
Cc1ccc(C(=O)c2sc3c(c2N)c(=O)[nH]c(=O)n3CCc2ccccc2)cc1	10
CCCCCC(=O)NN1C(=S)N(c2ccc(OC)cc2)C(=O)C1CC(=O)Nc1ccccc1 (stereo not given)	26
Cc1cccc(CCN=c2c([N+](=O)[O-])nn(-c3ccccc3)n2O)c1	15
CC1CCCC(NC(=O)CN(C)S(=O)(=O)c2cnc[nH]2)C1C (stereo not given)	17
Cc1ccccc1NC(=O)Nc1nc2ccc(S(C)(=O)=O)cc2s1	19
COc1ccc(OC)c(NC(=O)C2C3C=CC(C3)C2C(=O)NCc2cccnc2)c1 (stereo not given)	10
COc1ccc(C(=O)C2CCCN(C(=O)Cn3nc(C)cc3C)C2)cc1F (stereo not given)	3
CC(C)c1ccccc1-n1c(SCC(=O)N2CCc3ccccc3C2)nc2ccccc2c1=O	-9
COC(=O)C(Cc1ccccc1)NC(=O)c1cc(S(=O)(=O)N(C)C)ccc1Cl (stereo not given)	8
Clc1ccc(-n2cccc2)cn1	16
CCCN(CC(=O)Nc1ccccc1C)C(=O)/C=C/c1cccs1	21
O=C1CC(Nc2ccc(N3CCOCC3)cc2)C(=O)N1Cc1ccccc1 (stereo not given)	20
CCOc1ccc(C(=O)Nc2cccc(-c3nc4ccccc4[nH]3)c2C)cc1[N+](=O)[O-]	-8

Only part of the results is shown; count on the stated rates, not on these rows.
